# Sa growth 42C – blocks Staphylococcus aureus growth. relative growth, % (concentration not given with the values). actives 0.53% (n = 170,000). S. aureus RN4220 growth, OD600, 20 h, 42 °C; active compounds read low. AID 720641;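 active means growth at 42 °C up to 50% and 20 or more points under that at 30 °C, or under 10% at both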;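 further: 300 nL library stock went into each well; scaled to the means of positive and negative controls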
# GIV-Gai inh – GIV-Galpha-i interaction inhibition; P08753; Galpha-i3/FITC-GIV peptide fluorescence polarization, 90 min; active compounds read low; scaled: aluminum fluoride 0%, vehicle 100%; percent of control (FP), % (concentration not given with the values); actives 0.42% (n = 210,000); AID 1224905;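 active means replicate mean at 85% of control or lower, very high polarization wells dropped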;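 further: wells of about 15 µL received 100 nL stock; the first replicate is given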
# Target sequence (P08753 whole entry, looked up): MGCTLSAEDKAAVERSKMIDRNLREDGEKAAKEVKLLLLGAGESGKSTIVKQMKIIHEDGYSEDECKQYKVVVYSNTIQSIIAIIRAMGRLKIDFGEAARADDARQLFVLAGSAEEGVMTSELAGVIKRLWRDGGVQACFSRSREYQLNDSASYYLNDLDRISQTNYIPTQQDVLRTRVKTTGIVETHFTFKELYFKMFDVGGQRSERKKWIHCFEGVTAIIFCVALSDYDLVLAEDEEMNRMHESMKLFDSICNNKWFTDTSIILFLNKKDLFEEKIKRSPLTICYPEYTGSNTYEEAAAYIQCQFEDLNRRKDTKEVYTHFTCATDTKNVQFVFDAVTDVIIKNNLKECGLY
# HCMV UL50-53 inh – inhibitors of HCMV UL50-UL53 nuclear egress complex interaction. AID 1918969. HTRF UL50-UL53 interaction, normalized percent inhibition. inhibition, % (test concentration not listed). actives 0.15% (n = 190,000);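 active means both replicates at 50% or more, plus weaker picks with an unusually low signal ratio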;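 further: stock transfer was 100 nL into about 20 µL; 0% = negative control wells and 100% = wells with untagged competitor protein; inactives centre near -12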
# Sa growth 42C second temp – second read-out of Sa growth 42C, no call of its own (marks repeat the call); relative growth, %; measured here: growth at 30 °C;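 optical density after 20 h as mean of two plates; 100% = untreated growth and lower means inhibition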
# Active calls of the source: *; x = no result given; & = joins results of further samples. This is a random part of the collection; overall some 0.83% were active at least once.
SMILES,Sa growth 42C,Sa growth 42C second temp,GIV-Gai inh,HCMV UL50-53 inh
Cc1nn(C(=O)Nc2cc(F)ccc2F)c2ccccc12,x,x,102,-25
Cc1cccc(C(C)C)c1NC(=O)COC(=O)c1ccccc1N,104,84,x,-39
Cc1ccc(S(=O)(=O)NN2C(=O)c3ccccc3NC2(C)C)cc1,108,94,100,-3
COc1ccc(Cl)cc1S(=O)(=O)N1CCCC1,108,81,99,-12
CCCn1c(NC(=O)CN2C(=O)C3C4C=CC(C4)C3C2=O)nc2ccccc21 (configuration not stated),93,92,x,-19
Cc1n[nH]c(C)c1S(=O)(=O)Nc1ccccc1C(=O)Nc1ccc2c(c1)OCO2,96,94,x,-9
CCN(Cc1ccccc1)c1ccc(NS(=O)(=O)c2ccccc2)cc1C(=O)O,x,x,96,1
CCN1C(=O)c2c(C(=O)NC(C)C)ncn2CC1(C)C(=O)NC1CCCC1 (configuration not stated),x,x,106,-14
Cc1nn(CC(=O)N2CCCCC2)c(=O)c2cc3occc3n12,96,94,101,-9
CSc1cccc(NC(=O)CSc2ncn(-c3ccccc3)n2)c1,98,85,108,11
CN(c1ccccc1)n1c(-c2ccccc2)nc2ccccc2c1=O,108,106,102,-4
CCC(=O)c1cn(CC(N)=O)c2ccccc12,77,91,96,-3
Cc1ccc(NC(=O)c2c(C)oc3ncnc(N4CCCCC4)c23)cc1Cl,109,98,110,x
CCC(Cc1ccccc1)NC(=O)Cn1ncc2c3ccccc3n(Cc3ccc(F)cc3)c2c1=O (configuration not stated),96,95,106,7
Cc1c(-c2ccnn2S(C)(=O)=O)sc2ccc(Cl)cc12,76,83,99,-20

# Quoted at random: 2 records from the list, in no set order.
SMILES,Sa growth 42C,Sa growth 42C second temp,GIV-Gai inh,HCMV UL50-53 inh
Cc1ccc(NC(=O)c2c(C)oc3ncnc(N4CCCCC4)c23)cc1Cl,109,98,110,x
CN(c1ccccc1)n1c(-c2ccccc2)nc2ccccc2c1=O,108,106,102,-4

# The listing continues.
SMILES,Sa growth 42C,Sa growth 42C second temp,GIV-Gai inh,HCMV UL50-53 inh
CCOc1ccc(S(=O)(=O)n2ccc(C)n2)c2ccccc12,92,87,106,x
O=C(CSC1CCCCC1)c1ccc(Br)cc1,108,88,x,-1
CCc1ccccc1NC(=O)c1sc2nc3c(cc2c1N)CN(Cc1ccccc1)CC3,103,83,105,-41
CC1(C)CC2(CCCN(CCC(O)(c3ccccc3)c3ccccc3)C2)CCO1 (configuration not stated),115,87,x,-2
CCC1Cn2c(C(=O)NCCN3CCCCC3)cc3c(Cl)ccc(c32)O1 (configuration not stated),x,x,106,-3
CC1(C)CC(=O)C2=C(C1)OC(N)=C(C#N)C21C(=O)N(CO)c2ccccc21 (configuration not stated),93,70,101,x
Cc1cc(N2CC(C)CC(C)C2)nc2ccc(NC(=O)CCC(=O)Nc3ccc(F)cc3Cl)cc12 (configuration not stated),88,89,104,x
NNC(=O)CS(=O)(=O)Cc1ccc(-c2csnn2)cc1,89,87,99,-28
CCCCn1nnc(NC(=O)COc2ccc(Cl)c(C)c2)n1,107,95,103,-2
Cc1ccc2c(CC(=O)NNc3c(F)c(F)c(F)c(F)c3F)coc2c1,96,92,x,-18
CC1(C)CC(=O)C(C=NCc2ccc3c(c2)OCO3)=C(O)C1,94,90,101,4
O=S(=O)(c1ccccc1)N1CCN(c2nc3ccccc3nc2C(F)(F)F)CC1,x,x,98,13
CCn1cc(CN(C(=O)Nc2cccc(OC)c2)C2CCCCC2)c2ccccc21,115,93,110,x
CCNS(=O)(=O)c1csc(C(N)=O)c1,100,87,102,-22
CC1CCN(C(=O)C2CC(c3ccccc3F)=NO2)CC1 (configuration not stated),103,86,102&95,-23&2
CCOC(=O)c1c(N(C(C)=O)C(C)=O)sc(=S)n1-c1ccccc1,101,89,98,-9
CC1=CC(C)C(CN2CCOC2C(C)C)C(C)C1 (configuration not stated),117,98,x,-6
c1ccc(Cn2cnc3cc4c(cc32)OCCO4)cc1,x,x,99,8
O=C(NCc1ccco1)C1CCC(C(=O)NCc2ccco2)CC1 (configuration not stated),104,103,107,-4
FC(F)(F)c1cc(Oc2ccc(Cl)cc2)c2cc(Cl)ccc2n1,103,101,110,9
O=c1[nH]c(SCc2ccc(Br)cc2)nc2nc[nH]c12,x,x,100,-9
Cc1cc2[nH]c(=O)c(=O)[nH]c2cc1S(=O)(=O)N1CCc2ccccc2C1,114,92,109&100,3
CCOC(=O)c1cc2c(=O)n3ccccc3nc2n(Cc2ccco2)c1=NC(=O)c1ccccc1OC,112,77,106,-73
Cc1ccc(CNC(=O)C2CC=C(c3c[nH]c4ccccc34)CC2)cc1 (configuration not stated),x,x,104,-6
Cc1ccc(C)c(S(N)(=O)=O)c1,112,92,x,-24
CCOC(=O)C1C(=O)NC(N2CCc3ccccc32)=NC1c1ccccc1 (configuration not stated),102,95,103,-11
COc1ccccc1-c1nc(S(=O)(=O)c2ccccc2)c(N2CCC(C)CC2)o1,105,92,103&99,-14&-22
Cc1ccc(NC(=O)CN2C(=O)CSCC2=O)cc1,93,83,99,-30
CCCCn1c(SC(C)C(N)=O)nc2cc(S(N)(=O)=O)ccc21 (configuration not stated),95,91,x,-28
O=C1CC(c2nc(-c3ccc(N4CCCC4)cc3)no2)CN1c1cccc(Cl)c1 (configuration not stated),x,x,101,-4
CCc1ccccc1NS(=O)(=O)c1ccc2[nH]cc(C(=O)N3CCCCC3)c(=O)c2c1,95,92,107,26
Cc1cc(C)c(OCC(O)Cn2cc(/C=N/O)c3ccccc32)c(C)c1 (configuration not stated),90,46,107,-13
COc1ccc(N(CCC#N)S(=O)(=O)c2cccc3nsnc23)cc1,105,110,94,-77
CCCCNc1cc(NC2CCCCC2)c2c3c(onc13)-c1ccccc1C2=O,105,100,159,-13
COc1cc(NC(=O)c2cc3cc4cc(OC)ccc4nc3o2)cc(OC)c1,96,78,102,x
COc1cc(CN(C)Cc2cc3c(cc2O)OCO3)ccc1OC(F)F,81,92,x,-17
COc1ccccc1NC(=O)Nc1c[nH]c(=O)[nH]c1=O,x,x,103,-17
CCC(=O)NC(Nc1sc2c(c1C(=O)OC)CCC2)(C(F)(F)F)C(F)(F)F,77,83,x,-20
CCN1CCN(c2ccc(NC(=O)/C=C/c3ccccc3)cc2)CC1,108,102,x,-32
O=C(Cn1cnc2onc(-c3ccc(F)cc3)c2c1=O)N1CCN(Cc2ccc3c(c2)OCO3)CC1,91,92,104,-32
CCc1ccccc1NC(=O)C1=C(C)C(=O)OC12CCCCCC2,97,86,99,x
COc1cccc(NC(=O)Cn2ncc3c4ccccc4n(C)c3c2=O)c1,121,87,110,x
CCc1ccccc1NC(=O)CCNS(=O)(=O)c1ccc2c(c1)CCCC(=O)N2,101,82,107,x
COc1cc(CC(=O)N=c2sc3ccccc3n2C)cc(OC)c1OC,95,95,x,-17
COc1cccc(CNC(=O)CN(c2ccc(C(C)C)cc2)S(=O)(=O)c2c(C)noc2C)c1,107,91,108,-24

# Look-ups from the list:
# Sa growth 42C with CSc1cccc(NC(=O)CSc2ncn(-c3ccccc3)n2)c1 reads 98
# HCMV UL50-53 inh with O=C1CC(c2nc(-c3ccc(N4CCCC4)cc3)no2)CN1c1cccc(Cl)c1 (configuration not stated) reads -4
# HCMV UL50-53 inh with CCN1CCN(c2ccc(NC(=O)/C=C/c3ccccc3)cc2)CC1 reads -32
# GIV-Gai inh with O=c1[nH]c(SCc2ccc(Br)cc2)nc2nc[nH]c12 reads 100

# A second format for 2 compounds above:
compound	Sa growth 42C	Sa growth 42C second temp	GIV-Gai inh	HCMV UL50-53 inh
CCC(=O)NC(Nc1sc2c(c1C(=O)OC)CCC2)(C(F)(F)F)C(F)(F)F	77	83	x	-20
CCN1CCN(c2ccc(NC(=O)/C=C/c3ccccc3)cc2)CC1	108	102	x	-32

# In the list so far, two contain bromine:
SMILES,Sa growth 42C,Sa growth 42C second temp,GIV-Gai inh,HCMV UL50-53 inh
O=C(CSC1CCCCC1)c1ccc(Br)cc1,108,88,x,-1
O=c1[nH]c(SCc2ccc(Br)cc2)nc2nc[nH]c12,x,x,100,-9

# Next compounds follow.
SMILES,Sa growth 42C,Sa growth 42C second temp,GIV-Gai inh,HCMV UL50-53 inh
COCCn1c(=N)c(C(=O)NCC2CCCO2)cc2c(=O)n3ccccc3nc21 (configuration not stated),97,86,106,-83
Cc1nc2ccccc2n1CCOc1ccccc1,106,88,100,x
CCC(=O)N(Cc1nc2ccccc2c(=O)[nH]1)Cc1ccccc1OC,100,91,105,9
CC(C)OC(=O)CN1CCN(C2CCCCC2)CC1,115,102,103,7
COC(=O)c1n[nH]nc1C(=O)OC,93,85,105,-16
CCOC(=O)Cn1nc(C)c(NC(=O)c2ccc(OC)cc2)c1C,100,87,100,-19
O=C(CSc1nnc(-c2ccco2)n1Cc1ccccc1)OCC(=O)c1c[nH]c2ccccc12,109,89,x,6
Cc1ccccc1CN1C(=O)c2ccccc2Sc2ccc(C(=O)NCCc3ccccc3)cc21,136,100,97,x
O=C(CSc1nc2c(cnn2-c2ccccc2)c(=O)[nH]1)Nc1ccccc1,98,101,104,4
O=c1c2ccccc2n2c(SCc3ccccc3F)nnc2n1Cc1ccc(F)cc1,x,x,98,-25
CCc1ccc(NS(=O)(=O)c2cc3[nH]c(=O)c(=O)[nH]c3cc2C)cc1,96,88,104,1
CCOC(=O)c1cc2c(=O)n3ccccc3nc2n(CC(C)C)c1=NC(C)=O,94,91,98,-95
O=C(NCC(c1ccco1)S(=O)(=O)c1cccs1)c1ccc(F)c(F)c1 (configuration not stated),123,80,97,x
CCc1nc2c(sc3nc(C)cc(C)c32)c(=O)o1,105,92,115,-8
COc1ccc2nc3sc(C(=O)NC4CC4)cc3cc2c1,86,97,103,-28
O=C(Cn1cnc2nc(N3CCOCC3)sc2c1=O)NC1CCCCC1,x,x,101,-24
O=C(CNC(=O)c1ccc(Br)cc1)NC1=NCCS1,85,96,101,x
O=C(CC1N=C2c3ccccc3N=C(SCc3ccccc3F)N2C1=O)NCc1cccs1 (configuration not stated),81,95,100,x
O=C(Nc1ccc(O)c(-c2nc3ccccc3s2)c1)c1ccc2c(c1)OCCO2,x,x,98,-17
CCCSCCCNC(=O)C(CC)N1C(=O)CCn2nc(C)cc21 (configuration not stated),x,x,103,0
CN(C)S(=O)(=O)N(CC(=O)Nc1ccccc1C(=O)N1CCOCC1)c1ccccc1,103,108,108,12
Cc1ccccc1NC(=O)c1ccc(F)c(S(=O)(=O)N2CCc3ccccc3C2)c1,99,83,105,x
COc1ccc(CN2CC(C(=O)Nc3cc(-c4nc5ccccc5o4)ccc3OC)CC2=O)cc1 (configuration not stated),x,x,107,9
O=c1[nH]c2ccc(Nc3nc(CN4CCOCC4)nc4scc(-c5cccs5)c34)cc2[nH]1,73,77,x,-29
Cc1cc(C)n(CNc2c(C)n(C)n(-c3ccccc3)c2=O)n1,89,87,x,-21

# Assay outcomes as filed in PubChem BioAssay.
